Screening results as filed in PubChem BioAssay.
Autofluor counter: compound fluorescence in toxin protease inhibitor counterscreen; fluorescence intensity (concentration not given with the values); compound autofluorescence counterscreen, microsphere flow cytometry; active compounds read high; actives 3.1% (n = 360,000); AID 624483;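 active = at least 3 SD above the mean of all compounds, about 16000 in these data; inconclusive = too few beads counted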;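 note: 100 nL of 1 mM stock went into each well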
Sa ugtP lethal: growth inhibition of S. aureus ugtP deletion strain | S. aureus RN4220 ugtP deletion, OD600 growth, 16 h; some inactives read as strong as hits | growth inhibition, % (no concentration beside the values) | actives 0.54% (n = 330,000) | AID 1259309;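 active = z-score under -3 and OD600 up to 0.15 on both plates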;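 note: plate controls were untreated wells for no effect and antibiotic for full effect; wells of about 80 µL received 100 nL stock; the first replicate is given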
PrP UTR inh: suppresses PrP 5' UTR mRNA reporter expression; inhibition, % (concentration not given with the values); actives 0.35% (n = 340,000); cell-based PrP 5' UTR mRNA reporter, plate reader;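 active = every replicate at 50% or more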;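 note: 0 = median of the neutral control wells; tested in H4 reporter cells; numbers are from one replicate; inactives centre near -14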
BJeLR viability: BJeLR cell viability loss | BJeLR (HRASV12) viability, CellTiter-Glo ATP luminescence, 48 h; reference of the scale not given here | actives 0.17% (n = 300,000) | inhibition, % (test concentration not listed);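 active = replicate mean above 50%; inconclusive = above 50% but judged a plate artefact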;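 note: 50 nL library stock added to about 25 µL; numbers are from one replicate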
Mtb hypoxia inh: reduces hypoxia-regulated biosensor signal in M. tuberculosis; M. tuberculosis hypoxia-regulated fluorescent reporter, fluorescence; fluorescence inhibition, % (test concentration not listed); actives 0.1% (n = 300,000);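 active = 35 to 45% if threefold the growth effect, above 45% if 1.5-fold the growth effect; inactive = the rest, general growth blockers included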;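 note: wells of about 50 µL received 100 nL stock; 0% = vehicle wells and 100% = reference inhibitor wells; whole bacteria with a GFP reporter of the hypoxia response; strong numbers were not always called active; many hits fall short of the cut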
Sa RN4220 lethal: kills Staphylococcus aureus RN4220. AID 1259311. inhibition, % (no concentration beside the values). actives 0.33% (n = 330,000). S. aureus RN4220 growth, OD600, 16 h;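 active = z-score of -3 or lower and OD600 up to 0.18 on both plates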;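 note: plate controls were untreated cells for no effect and reference antibiotic for full effect; stock transfer was 100 nL into about 80 µL; one replicate is shown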
Mtb hypoxia inh growth: second read-out of Mtb hypoxia inh, no call of its own (marks repeat the call); growth inhibition, %; measured here: M. tuberculosis growth (absorbance);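 0% = vehicle and 100% = reference antibiotic; read after six days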
* marks the source's active call; other numbers are inactive results; ? = inconclusive; nt = no result given.

smiles	Autofluor counter	Sa ugtP lethal	PrP UTR inh	BJeLR viability	Mtb hypoxia inh	Mtb hypoxia inh growth	Sa RN4220 lethal
COC(=O)c1sc2nc(N)c(C#N)cc2c1N	2235	-2	-24	9	-3	4	3.0
COc1cc2c(cc1O)C[C@H]1NCCc3cc4c(c-2c31)OCO4	3197	nt	-15	20	nt	nt	nt
CCCc1cc(C(=O)Nc2cccc(C(C)=O)c2)no1	6282	-6	-22	0	8	15	-9.2
O=C(CCC1CCCC1)Nc1ccc(Br)cn1	3752	2	-71	-3	nt	nt	-2.1
CCOc1ccc(C(=O)NCC(=O)OCc2c(F)cccc2Cl)cc1	2112	14	-36	2	2	0	1.7
Cc1ccccc1C(=O)Nc1ccnn1C1CCN(Cc2c(C)n(C)c3ccccc23)CC1	6415	-6	-13	2	-2	6	-4.3
CON=CCc1c([N+](=O)[O-])c(C)nn1C	nt	10	nt	nt	-13	-3	8.7
O=C(O)c1ccc(CSCc2ccco2)cc1	2935	-8	-12	-2	11	14	-18
CC(=O)OC(=C(OC(C)=O)c1ccccc1)c1ccccc1	3839	-4	-6	nt	-2	-1	-1.8
CN1CCN(c2ccccc2NC(=O)c2ccc(-c3ccc(Cl)cc3Cl)o2)CC1	8309	-8	-7	-11	9	18	-0.5
CC(C1CC1)N(C(=O)c1ccccc1O)c1ccccc1 (stereo not given)	9056	-3	-16	2	25	12	11
Cc1ccc(CN2CCN(CC(=O)NCc3ccc(Cl)cc3)C2=O)cc1	5723	1	-11	-5	nt	nt	-2.9
CC(=NNc1ccccc1C)c1cccnc1	nt	6	nt	nt	13	7	5.3
COc1cc(C2/C(=C(\O)c3ccc4c(c3)CC(C)O4)C(=O)C(=O)N2CC2CCCO2)cc(OC)c1OC (stereo not given)	4874	3	-3	2	10	4	1.3
Cc1ccsc1C=Nc1c(C)n(C)n(-c2ccccc2)c1=O	11187	7	-24	-12	7	6	2.7
Cc1ccc(CS(=O)(=O)Cc2ccc(C(=O)NC3CCCCCC3)o2)cc1	5365	nt	-13	2	nt	nt	nt
CC1CCCC(NC(=O)COC(=O)CCC2CCCC2)C1C (stereo not given)	3074	2	-9	0	7	0	0.9
NS(=O)(=O)Oc1ccccc1	4012	-8	-21	4	6	9	4.1
CCOC(=O)c1c(N2C(=O)Nc3ccccc3N2O)n[nH]c1-c1cccc(OC)c1	2779	6	0	-2	3	5	3.4
CN(C)C(=O)Oc1ccc2c(c1)O/C(=C\c1cccc([N+](=O)[O-])c1)C2=O	4002	-5	-23	-3	-1	-4	3.7
CN1CCN(c2ccc(C(F)(F)F)cc2NC(=O)c2ccco2)CC1	5960	4	-5	-15	2	-1	-3.3
CN(c1ccccc1C(=O)Nc1cccc([N+](=O)[O-])c1)S(C)(=O)=O	2027	-6	-11	-2	6	7	2.2
CCOP(C)(=O)C1(C(=O)OCc2ccccc2)CC1 (stereo not given)	3596	-3	1	5	nt	nt	10
c1csc(CNc2ccc3c(c2)OCCO3)c1	2189	2	-25	nt	7	0	7.8
CN(C)C(CNC(=O)CCCc1c[nH]c2ccccc12)c1ccco1 (stereo not given)	6156	-7	-22	-3	3	5	5.1
CCOC(=O)c1c(/N=C/c2ccc(OC)cc2O)sc2c1CCN(C)C2	3613	nt	-12	-3	nt	nt	nt
Cc1ccc(NC(=S)Nc2ccc(F)cc2)c(C)c1	2010	7	-28	-3	-3	11	6.8
CCOC(=O)CSc1nnc(CNC(=O)c2cccs2)n1-c1cc(OC)ccc1OC	9682	0	-25	5	2	5	0.8
COc1ccc(NC(=O)CN2CCCCC2)cc1S(=O)(=O)N1CCCCC1	3755	-1	-25	nt	6	12	5.9
COc1ccc(-c2cc(=O)oc3c(C)c(OC(C)C(=O)Nc4ccc(CN5CCOCC5)cc4)ccc23)cc1 (stereo not given)	6243	-2	2	11	-1	0	-1.3
N#CCCn1nc(-c2ccc(Br)cc2)cc1Nc1ccccc1NC(=O)C(F)(F)F	2567	-25	6	-15	12	-6	1.0
COc1ccc(NC(=O)CSc2nnc(-c3ccncc3)o2)c(OC)c1	?	5	-5	-1	-10	2	-1.4
CC(C)(C)NC(=S)NCc1ccco1	2827	nt	-18	-8	nt	nt	nt
Cc1ccc(NS(=O)(=O)c2cccc(C(=O)NNC(=O)c3cccn3C)c2)c(C)c1	?	9	-20	6	2	3	2.2
O=C(c1ccc2c(c1)OCO2)C1CCCN(Cc2ccc(F)c(F)c2)C1 (stereo not given)	5784	2	-4	-2	-4	4	2.5
CN(CC(=O)Nc1cccc(F)c1)C(=O)CC1CCCC1	4839	0	3	nt	5	0	3.4

Remaining list, next part
Each structure is followed by: Autofluor counter | Sa ugtP lethal | PrP UTR inh | BJeLR viability | Mtb hypoxia inh | Mtb hypoxia inh growth | Sa RN4220 lethal
Cc1ccc(CN2C3CCCC2CC(NC(=O)c2ccc(C)cc2)C3)cc1 (stereo not given)
  4330 | 8 | -27 | 0 | -5 | 5 | 3.4
CCOc1cc(C=C(C(=O)OC)C(=O)OC)ccc1OCc1ccc([N+](=O)[O-])cc1
  2512 | -4 | -10 | nt | 13 | 3 | 16
O=C(O)CC[C@@H](C(=O)O)N1C(=O)c2ccccc2C1=O
  4442 | nt | 3 | -9 | nt | nt | nt
O=C(/C=C/c1ccco1)OCC(=O)c1cccc([N+](=O)[O-])c1
  6166 | 1 | -4 | -10 | 6 | 23 | 0.4
O=C(OCc1cc2ccccc2[nH]c1=O)C1CCCCC1
  3250 | -19 | 7 | 1 | 1 | -1 | 2.2
O=C(c1ccco1)N(Cc1ccc([N+](=O)[O-])cc1)c1ccc(Cl)cc1
  8654 | 18 | -2 | -6 | -70 | 10 | -1.1
Cc1cccc(OCC(=O)Nc2cccc(-c3nnc(-c4ccccc4)o3)c2)c1C
  8345 | 1 | -51 | -3 | 9 | 8 | 10
CN1C(=O)C(=O)/C(=C(/O)c2ccccc2)C1c1ccc(Br)cc1 (stereo not given)
  3379 | -1 | -13 | -3 | -6 | -6 | 9.1
O=C(Cc1cccc(NC(=O)C2CCCN(C(=O)C3CC3)C2)c1)Nc1ccc(C(=O)N2CCOCC2)cc1 (stereo not given)
  3875 | -1 | -4 | nt | -2 | 2 | 1.4
COc1ccc(/C=N/NC(=O)c2cccc(NC(=O)c3ccccc3Cl)c2)cc1OC
  4237 | nt | -19 | 3 | nt | nt | nt
CC1CCN(C(=S)NC(=O)c2cccc([N+](=O)[O-])c2)CC1
  6090 | 3 | -21 | -7 | -4 | 2 | 0.3
CC1CN(S(=O)(=O)c2ccc(C(=O)Nc3ccc(S(=O)(=O)N4CCOCC4)cc3)cc2)CC(C)O1 (stereo not given)
  5087 | -3 | -48 | 6 | 2 | 5 | -2.8
CCN(C[C@H]1N[C@@](Cc2ccccc2)(C(=O)OC)[C@H]2C(=O)N(C)C(=O)[C@@H]12)C(=O)C1CCCCC1
  2819 | 12 | -3 | nt | 4 | 0 | 2.5
COc1ccccc1/C=C\C(=O)NCC(=O)NN=C(C)Cc1ccccc1
  nt | 13 | nt | nt | 10 | 7 | 1.2
Cc1ccc(CNC(=O)C2CCCN(S(=O)(=O)c3cccc4nonc34)C2)cc1 (stereo not given)
  4805 | 7 | -7 | -1 | 0 | -4 | 6.2
CN1C2CCC1C(C(=O)O)C(O)C2 (stereo not given)
  4531 | -7 | 13 | nt | nt | nt | 4.9
CN(C)c1ccc(C(=O)N=c2sccn2C)cc1[N+](=O)[O-]
  5978 | -8 | -64 | -1 | 13 | 7 | 5.8
Cc1ccc(/C=N/NC(=O)c2cccc(S(=O)(=O)Nc3ccccc3Cl)c2)o1
  9872 | nt | -20 | 1 | nt | nt | nt
C/[N+]([O-])=C1\Cc2ccccc2C1=O
  4788 | -7 | -23 | -12 | nt | nt | 2.9
COc1ccccc1NS(=O)(=O)NC(=O)c1c(C)[nH]c2ccccc12
  4900 | 5 | -24 | 4 | 9 | 3 | 5.6
COc1ccc(Nc2nc3cc(C)ccc3cc2C#N)c(OC)c1
  2471 | -2 | 26 | 23 | 2 | -4 | -2.1
COc1ccc(C=NNc2ccc([N+](=O)[O-])cc2S(=O)(=O)Nc2ccccc2C(=O)O)cc1OC
  3877 | 26 | 1 | nt | 8 | 0 | 0.2
CC(C)Cc1nnc(NC(=O)c2ccc(S(=O)(=O)N3CCCC3)cc2)s1
  nt | 0 | -10 | nt | 1 | 5 | 4.2
Cc1cccn2c(=O)c(C=O)c(N3CCSCC3)nc12
  nt | 3 | -7 | -7 | nt | nt | 4.1
COc1cccc(NC(=O)CN2C(=O)CSc3nc(C)cc(C)c32)c1
  6132 | -3 | -3 | -1 | 8 | 9 | 1.6
Cc1ccc(N2CC(C(=O)Nc3ccccc3C(=O)NC3CCCCC3)CC2=O)cc1 (stereo not given)
  4496 | 8 | 3 | 3 | 4 | 0 | 7.3
O=C(c1ccco1)N1CCN(C(c2ccc(Cl)cc2)c2nnnn2CC2CCCO2)CC1 (stereo not given)
  4223 | 2 | -11 | -8 | nt | nt | -1.5
NC(=O)c1ccccc1NS(=O)(=O)c1ccc(S(=O)(=O)N2CCCC2)cc1
  4285 | -2 | 1 | nt | 22 | 45 | -0.2
NS(=O)(=O)c1ccc(N2N=C(c3ccccc3)CC2c2ccccc2Cl)cc1 (stereo not given)
  2923 | -34 | 2 | nt | -8 | -2 | -5.5
COc1ccccc1-c1nnc(SC)n1C
  4125 | 4 | -18 | -14 | 1 | 12 | -0.5

Compound profiles, as listed above. Values in the order: Autofluor counter | Sa ugtP lethal | PrP UTR inh | BJeLR viability | Mtb hypoxia inh | Mtb hypoxia inh growth | Sa RN4220 lethal
O=C(Cc1cccc(NC(=O)C2CCCN(C(=O)C3CC3)C2)c1)Nc1ccc(C(=O)N2CCOCC2)cc1 (stereo not given) across the screens: 3875 | -1 | -4 | nt | -2 | 2 | 1.4
O=C(c1ccco1)N1CCN(C(c2ccc(Cl)cc2)c2nnnn2CC2CCCO2)CC1 (stereo not given) across the screens: 4223 | 2 | -11 | -8 | nt | nt | -1.5
CC1CCN(C(=S)NC(=O)c2cccc([N+](=O)[O-])c2)CC1 across the screens: 6090 | 3 | -21 | -7 | -4 | 2 | 0.3
Cc1ccc(CNC(=O)C2CCCN(S(=O)(=O)c3cccc4nonc34)C2)cc1 (stereo not given) across the screens: 4805 | 7 | -7 | -1 | 0 | -4 | 6.2
NC(=O)c1ccccc1NS(=O)(=O)c1ccc(S(=O)(=O)N2CCCC2)cc1 across the screens: 4285 | -2 | 1 | nt | 22 | 45 | -0.2

Grouped by structure, those above containing a CF3 group (two)
Each structure is followed by: Autofluor counter | Sa ugtP lethal | PrP UTR inh | BJeLR viability | Mtb hypoxia inh | Mtb hypoxia inh growth | Sa RN4220 lethal
CN1CCN(c2ccc(C(F)(F)F)cc2NC(=O)c2ccco2)CC1
  5960 | 4 | -5 | -15 | 2 | -1 | -3.3
N#CCCn1nc(-c2ccc(Br)cc2)cc1Nc1ccccc1NC(=O)C(F)(F)F
  2567 | -25 | 6 | -15 | 12 | -6 | 1.0

More results
Each structure is followed by: Autofluor counter | Sa ugtP lethal | PrP UTR inh | BJeLR viability | Mtb hypoxia inh | Mtb hypoxia inh growth | Sa RN4220 lethal
O=C1c2cccc3cccc(c23)C(=O)N1CC1CCN(S(=O)(=O)c2ccc(F)cc2)CC1
  2466 | 6 | -4 | 4 | 6 | 3 | 4.0
CC1CCCCC12NC(=O)N(CC(=O)Nc1ccc3[nH]c(=O)[nH]c3c1)C2=O (stereo not given)
  6281 | 0 | -8 | -6 | -4 | 6 | 1.4
CN(C)S(=O)(=O)c1ccc(Cl)c(NC(=O)COC(=O)/C=C/c2ccc(S(=O)(=O)N3CCOCC3)cc2)c1
  2583 | 1 | 4 | -3 | 4 | 7 | 2.7
O=C(OCC(=O)N1CCN(Cc2ccccc2)CC1)c1cc(Cl)ccc1[N+](=O)[O-]
  3849 | 5 | -15 | nt | 3 | 12 | 7.1
O=C(NN=C1CC2C=CCC12)c1ccco1 (stereo not given)
  nt | 7 | nt | nt | 4 | 7 | 3.0
Cc1ccc(SCc2nc3ccccc3n2CC(=O)Nc2ccc(Cl)cc2)cc1
  10235 | -47 | -52 | -1 | -6 | 3 | 2.2
O=C(Cc1ccccc1)N1CCN(c2ccc([N+](=O)[O-])cc2)CC1
  3736 | 5 | -22 | -5 | 13 | 6 | -0.7
CCOc1ncccc1C(=O)OCc1nnc(-c2ccccc2)o1
  2451 | 3 | -10 | nt | nt | nt | 4.5
Cc1cc(Cn2nc(-c3ccccc3)cc2C(=O)NCC2CC2)on1
  3043 | -2 | 8 | 10 | -1 | 7 | -2.3
